RGS4 inhibitor: human RGS4 inhibition | P49798 | Transcreener GDP fluorescence polarization, RGS4-accelerated GTP hydrolysis | Potency, µM (highest dose often 114 µM), without a hit: at the highest dose activity change, negative = inhibition, usual class: inhibitors | 390,000 tested, 0.039% active; also: % is scaled to controls: 0 for no effect and ±100 for the full control effect; nearly all actives have a fitted effect of over 75% in size; some results filed as inactive show a strong effect at the top dose
Target sequence (P49798 whole entry, looked up): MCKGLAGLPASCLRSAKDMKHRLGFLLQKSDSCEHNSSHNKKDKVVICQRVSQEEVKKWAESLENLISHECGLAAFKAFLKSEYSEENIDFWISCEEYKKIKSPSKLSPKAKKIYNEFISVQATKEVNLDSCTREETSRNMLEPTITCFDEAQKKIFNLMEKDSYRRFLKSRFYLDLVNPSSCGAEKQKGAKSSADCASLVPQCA
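MLSMR compounds (23 nl, pin-transferred) preincubated 10 min at room temperature with a 500nM (2x) first reagent, then RGS4 at 900nM (2x) plus Transcreener GDP mix added; fluorescence polarization (620/688 nm) read before and after 90 min at 30 °C.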
Vif-APOBEC3F blk: Vif-A3F binding inhibition | HeLa A3F-eYFP + Vif (tagged APOBEC3F with the HIV-1 protein that degrades it), YFP fluorescence increase | Potency, µM (highest dose often 46.1 µM), without a hit: at the top dose activity, negative = active | 390,000 tested, 0.2% active | AID 602313; also: % of control where 0% means no effect; nearly all actives have a fitted effect of over 65% in size
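HeLa cells stably expressing A3F-eYFP plus Vif, plated and incubated overnight at 37 deg C, then exposed to compounds overnight at 37 deg C. Blocked degradation read as raised yellow fluorescence (Ex 488/Em 500-530).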
mIDH1 inhibitor: blocks human mutant IDH1 R132H enzyme; O75874; IDH1-R132H enzyme, NADPH consumption, diaphorase/resazurin fluorescence; Potency, µM (doses to about 76.6 µM), for inactives: at the top dose activity change, negative = inhibition, usual class: inhibitors; 390,000 tested, 0.093% active; also: % is scaled to controls: 0 for no effect and ±100 for the full control effect; nearly all actives have a fitted effect of over 65% in size
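IDH1-R132H (0.5 ug/mL) preincubated 30 min with compound, then NADPH (0.016 mM) and alpha-KG (2 mM) added; 80 min at RT, pH 7.5. Remaining NADPH coupled via diaphorase/resazurin to fluorescence (540/590 nm); concentration-response curves normalized to no-enzyme control.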
USP1 inh: USP1/UAF1 (human) deubiquitinase inhibition. O94782. recombinant USP1/UAF1, Ub-Rhodamine cleavage fluorescence. Potency, µM (highest dose often 57.1 µM), for the others: top-dose activity change, negative = inhibition, most hits filed as inhibitors. 390,000 tested, 0.23% active. AID 743255; also: % is scaled to controls: 0 for no effect and ±100 for the full control effect; nearly all actives have a fitted effect of over 60% in size; inactives centre near -12
Target sequence (O94782 whole entry, looked up): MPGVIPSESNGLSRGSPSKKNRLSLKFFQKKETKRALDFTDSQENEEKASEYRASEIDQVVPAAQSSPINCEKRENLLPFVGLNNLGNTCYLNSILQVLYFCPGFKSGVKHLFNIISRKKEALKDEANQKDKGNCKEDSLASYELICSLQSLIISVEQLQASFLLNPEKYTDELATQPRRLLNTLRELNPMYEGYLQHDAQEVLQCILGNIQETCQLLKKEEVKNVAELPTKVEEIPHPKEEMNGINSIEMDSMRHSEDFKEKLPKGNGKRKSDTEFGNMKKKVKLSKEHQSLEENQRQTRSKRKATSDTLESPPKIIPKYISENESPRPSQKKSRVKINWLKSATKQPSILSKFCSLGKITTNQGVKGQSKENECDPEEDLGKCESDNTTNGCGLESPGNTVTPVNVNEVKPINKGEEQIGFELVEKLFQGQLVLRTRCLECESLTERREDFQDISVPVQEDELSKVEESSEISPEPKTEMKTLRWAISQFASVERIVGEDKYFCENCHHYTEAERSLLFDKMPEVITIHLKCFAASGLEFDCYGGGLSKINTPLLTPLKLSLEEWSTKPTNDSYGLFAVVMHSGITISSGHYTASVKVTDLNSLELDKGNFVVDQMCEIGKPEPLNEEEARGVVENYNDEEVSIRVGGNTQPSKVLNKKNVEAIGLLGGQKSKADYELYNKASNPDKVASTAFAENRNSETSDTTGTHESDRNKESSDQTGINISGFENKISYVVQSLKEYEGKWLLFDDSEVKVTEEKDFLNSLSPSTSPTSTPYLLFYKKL
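USP1/UAF1 complex (1 nM) preincubated 15 min at room temperature with compound, then Ub-Rho substrate (150 nM final) added. Kinetic fluorescence at 480/540 nm over 6 reads at 60 s intervals; 50 mM HEPES pH 7.8, 0.5 mM EDTA, 0.1 mg/ml BSA, 1 mM TCEP, 0.01% Tween-20.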
ALOX12 inh: inhibitors of human 12S-lipoxygenase ALOX12; P18054; purified 12hLO, xylenol orange hydroperoxide absorbance; Potency, µM (highest dose often 108 µM), inactives show at the highest dose activity change, negative = inhibition, most hits filed as inhibitors; 580,000 tested, 1.1% active; AID 1671190; also: % is scaled to controls: 0 for no effect and ±100 for the full control effect
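Purified human 12hLO (150 nM final) in 25 mM Hepes, 0.01% Triton X-100, pH 7.0 was preincubated 15 min at room temperature with compound. Then 40 uM arachidonic acid was added, 30 min. Hydroperoxide was read by Fe-XO absorbance ratio 573/405 nm.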
TrxR1 substrate: is turned over as a substrate by rat TrxR1; O89049; purified TrxR1 substrate turnover, NADPH consumption readout; Potency, µM (top dose mostly 114 µM), inactives show at the highest dose activity change, negative = substrate turnover; 390,000 tested, 0.01% active; AID 588456; also: % is scaled to controls: 0 for no effect and ±100 for the full control effect; nearly all actives have a fitted effect of over 50% in size
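Rat TrxR1, dispensed at 90 nM, was prereduced with 400 uM NADPH (final) for 5 min at ~22 deg C, then incubated with compound 15 min before 400 uM selenite. A first-read NADPH fluorescence drop versus no-compound background flagged substrates.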
rTrxR1 inhibitor: blocks rat thioredoxin reductase 1 | 390,000 tested, 1% active | recombinant rTrxR1, NADPH fluorescence consumption, selenite substrate | AID 588453 | Potency, µM (titrated, usually from 114 µM), without a hit: at the highest dose activity change, negative = inhibition, most hits filed as inhibitors | O89049; also: % is scaled to controls: 0 for no effect and ±100 for the full control effect; nearly all actives have a fitted effect of over 65% in size
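Rat TrxR1 (90 nM in the dispensed reagent) was pre-reduced with 400 uM NADPH for 5 min at room temperature, then incubated with compound for 15 min. After 400 uM selenite was added, NADPH fluorescence (Ex 340/Em 450 nm) was followed for 8 min.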
Vif-APOBEC3G blk: inhibitors of Vif-APOBEC3G interaction | HeLa A3G-eYFP + Vif (tagged APOBEC3G with the HIV-1 protein that degrades it), YFP fluorescence, overnight | Potency, µM (doses to about 46.1 µM), inactives show at the top dose activity, negative = active, actives largely listed as inhibitors | 410,000 tested, 0.076% active | AID 602310;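 also: % is scaled to controls: 0 for no effect and ±100 for the full control effect; nearly all actives have a fitted effect of over 60% in size; hits raise eYFP signal because A3G escapes Vif-driven loss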
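HeLa cells stably expressing Vif and C-terminally eYFP-tagged A3G, seeded overnight at 37 deg C, then exposed to compound by pintool overnight at 37 deg C. Rise in yellow fluorescence (Ex 488/Em 500-530, Acumen) marks blocked Vif-driven A3G degradation.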
* = called active by the depositor; ? = inconclusive; nt = no result given; [ ] = remark or other dose. Calls follow the shape of the dose curve; as a rule, active = well fitted curve in the direction sought with a large enough effect; inconclusive = small, poorly fitted or top-dose-only effect, or another doubt; inactive = no such curve, though single readings can be large; an effect the other way counts as inactive or inconclusive. Potency is read from the fitted curve at half-maximal effect. The list is partial. The share of hits here may be higher or lower than overall.

| SMILES | RGS4 inhibitor | Vif-APOBEC3F blk | mIDH1 inhibitor | USP1 inh | ALOX12 inh | TrxR1 substrate | rTrxR1 inhibitor | Vif-APOBEC3G blk |
| --- | --- | --- | --- | --- | --- | --- | --- | --- |
| CC(C)(C)C(=O)C1=C(O)C(=O)N(c2ccccc2)C1c1ccccc1 (centres undefined) | -3% | 3% | -4% | -22% | ? | -8% | 4% | 7% |
| O=c1c2cc(N3CCOCC3)ccc2[nH]c(=S)n1CCCN1CCCCC1 | -19% | 5% | -4% | -22% | -13% | 7% | 6% | 4% |
| Brc1cc(Br)c2nc3c(cc2c1)CCC3 | 6% | 2% | -1% | -7% | -5% | -7% | -13% | -2% |
| Cc1ccc(C(=O)C2=C(O)C(=O)N(Cc3cccnc3)C2c2ccc(Cl)c(Cl)c2)o1 (centres undefined) | 20% | -1% | -23% | -9% | nt | -7% | -4% | 0% |
| CCCCC(=O)Nc1ccc(OCc2cc(=O)n3c(C)csc3n2)cc1 | 2% | -3% | -3% | ? | -27% | -2% | 8% | 3% |
| N#Cc1cn(CC(=O)N2CCCC2)c2ccccc12 | -12% | 1% | 5% | -18% | -1% | -2% | -15% | 2% |
| Cc1cc(F)ccc1S(=O)(=O)Nc1nc2ccccc2nc1Cl | 16% | -2% | -5% | 2% | ? | -1% | -15% | -5% |
| COc1ccc(/C(O)=C2/C(=O)C(=O)N(c3ccccn3)C2c2cccc(Cl)c2)cc1 (centres undefined) | 24% | 0% | 8% | -2% | -8% | -11% | -12% | -4% |
| Cc1c(C(=O)NCc2cccc(Cl)c2)sc2ncnc(N(C)C3CCCCC3)c12 | 8% | 3% | 6% | ? | -5% | -2%[57.1 µM] | 11%[57.1 µM] | -2% |
| CCn1c(SCC(=O)Nc2ccc(C(=O)OC)cc2)nnc1-c1cccs1 | -17% | -16% | 8% | -21% | -4% | 23% | 24% | 0% |

The list goes on, starting with the last 3 of the part before.
| SMILES | RGS4 inhibitor | Vif-APOBEC3F blk | mIDH1 inhibitor | USP1 inh | ALOX12 inh | TrxR1 substrate | rTrxR1 inhibitor | Vif-APOBEC3G blk |
| --- | --- | --- | --- | --- | --- | --- | --- | --- |
| COc1ccc(/C(O)=C2/C(=O)C(=O)N(c3ccccn3)C2c2cccc(Cl)c2)cc1 (centres undefined) | 24% | 0% | 8% | -2% | -8% | -11% | -12% | -4% |
| Cc1c(C(=O)NCc2cccc(Cl)c2)sc2ncnc(N(C)C3CCCCC3)c12 | 8% | 3% | 6% | ? | -5% | -2%[57.1 µM] | 11%[57.1 µM] | -2% |
| CCn1c(SCC(=O)Nc2ccc(C(=O)OC)cc2)nnc1-c1cccs1 | -17% | -16% | 8% | -21% | -4% | 23% | 24% | 0% |
| COc1cccc2cc(C(=O)Nc3ccc(F)c(F)c3)c(=O)oc12 | 2% | 3% | 0% | -14% | -21% | 3% | 15% | 6% |
| Cc1nc2ccc(Br)cc2c2c1CC(CO)O2 (centres undefined) | -5% | -9% | 0% | -2% | 0% | 3% | 11% | 8% |
| O=C(NCc1ccco1)c1ccc(Cn2c(=O)c3ccccc3n(Cc3cccc(F)c3)c2=O)cc1 | -101%[56.9 µM] | -3% | 1% | -15% | 0% | -9% | -21% | -11% |
| CCc1cc(C(=O)c2ccc(OC)cc2)c(NC(=O)COCC(=O)O)s1 | -35% | -1% | 3% | -23% | ? | -8% | -8% | -1% |
| CCN(CC)S(=O)(=O)c1ccc(C(=O)OCCNC(=O)c2cccnc2)cc1 | 1% | 4% | 4% | -10% | 0% | 0% | -3% | 1% |
| CCCOc1cccc(C2C(C(=O)c3cc4ccccc4o3)=C(O)C(=O)N2c2cc(C)on2)c1 (centres undefined) | -35% | ? | -9% | ? | ? | -7% | -25% | -2% |
| N#Cc1ccc(OCC(=O)Nc2cccc(S(=O)(=O)NC3=NCCCCC3)c2)cc1 | 15% | 7% | 3% | -20% | 2% | -2% | -3% | -1% |
| Cc1csc2nc(COc3cccc(NC(=O)c4ccccc4F)c3)cc(=O)n12 | -26% | 0% | 10% | -28% | -21% | 13% | 13% | 2% |
| O=C1CC(c2ccccc2)Cc2[nH]c(=O)c(C(=O)Nc3ccc(OC(F)(F)F)cc3)cc21 (centres undefined) | -8% | -13% | 7% | ? | -7% | 4% | 25% | 4% |
| Nc1ncnc2c1ncn2[C@@H]1O[C@H](C(=O)NC2CC2)[C@@H](O)[C@H]1O | ? | nt | nt | nt | 4% | nt | nt | nt |
| O=C1CC(c2ccccc2)Cc2[nH]c(=O)c(C(=O)Nc3ccc(F)cc3)cc21 (centres undefined) | 11% | -2% | -2% | 1% | -2% | 10%[57.1 µM] | 25%[57.1 µM] | -3% |
| CCOC(=O)N1CCC(NC(=O)C2CCCN(c3nc4ccccc4o3)C2)CC1 (centres undefined) | -11% | ? | 8% | ? | -19% | 3% | 13% | -2% |
| O=C(O)CCn1c(SCc2cc(=O)n3ccccc3n2)nc2ccsc2c1=O | 11% | -44% | 4% | -17% | 1% | 13% | 13%[57.1 µM] | 0% |
| COc1ccc(NC(=O)CSc2ccc3nnc(-c4cccnc4)n3n2)cc1 | 5% | -5% | 3% | -8% | 55% | 3% | 14% | -7% |
| Cn1c(=O)c2c(ncn2CCC(=O)N/N=C/c2ccncc2)n(C)c1=O | -1% | 1% | 0% | -14% | 175%[activator] | 5% | 19% | -2% |
| Cc1cc(C)c(NC(=O)CSc2nc(C)cc(C)c2C#N)c(C)c1 | 12% | 1% | 12% | -15% | -26% | -8%[11.4 µM] | -8%[11.4 µM] | -1% |
| CN(C)c1oc(-c2ccccc2)nc1C#N | 13% | -22% | 5% | 12% | -5% | 631%[activator] | 108%[activator] | 1% |
| Cc1cc(N2C(=O)C(O)=C(C(=O)c3ccco3)C2c2ccccc2F)no1 (centres undefined) | 42% | -3% | 16% | -7% | nt | -13% | -11% | -1% |
| COc1ccc(Cn2ccc3nc(C)c(C(=O)Nc4ccc(OC)cc4OC)cc3c2=O)cc1 | -38% | 0% | 8% | -11% | 1% | 0%[57.1 µM] | 5%[57.1 µM] | 3% |
| O=S(=O)(c1ccccc1)N1CCN(c2cc(-c3ccccc3)nc3ncnn23)CC1 | 11% | -2% | -2% | -3% | 0% | 12% | 6% | 1% |
| Cc1c(N2C(=O)C(=O)/C(=C(/O)c3ccc(Br)cc3)C2c2cccnc2)c(=O)n(-c2ccccc2)n1C (centres undefined) | -14% | 2% | -9% | -18% | ? | -4%[57.1 µM] | -2%[57.1 µM] | 3% |
| S=C(Nc1ccccc1)Nc1ccccc1-n1cccc1 | -53% | -12% | 12% | -13% | -5% | 1% | 5% | -1% |
| CCc1nc(NCC2CCCN2CC)c2nnn(Cc3ccccc3F)c2n1 (centres undefined) | -10% | -6% | 1% | 5% | -12% | -1% | 11% | 0% |
| CC(C)C(OC(=O)c1nsc(Cl)c1Cl)C(=O)NCC1CCCO1 (centres undefined) | -12% | -1% | 0% | -15% | 15% | 8% | 19% | 2% |
| Cc1c(C#N)c(N)nc2c3c(sc12)NC(=O)CC3c1ccc(Cl)cc1 (centres undefined) | 9% | -19% | 29µM* | -13% | ? | -2% | 6% | -12% |
| Cc1nc(SCCC(=O)O)c2ccccc2n1 | 12% | -15% | -1% | -1% | -3% | 4% | -3% | -1% |
| CCCn1c(=S)[nH]c2sc3c(c2c1=O)CCCC3 | -33% | -5% | -4% | 1% | -13% | -4% | ? | 0% |
| Cc1nc(-c2ccccn2)sc1C(=O)Nc1ccc(F)cc1 | 37% | -15% | 0% | -13% | -5% | 14%[57.1 µM] | 12%[57.1 µM] | -8% |
| O=C(NCc1ccccc1)c1c(O)c2ccccc2[nH]c1=O | -2% | 2% | 20% | -10% | -19% | -10% | 9%[57.1 µM] | -3% |
| O=C(C1CC(=O)N(c2ccc(F)cc2)C1)N1CCOCC1 (centres undefined) | 10% | 6% | 0% | -20% | -7% | 0% | -1% | 2% |
| O=C(COc1ccc2cc(Br)ccc2c1Br)N1CCOCC1 | -22% | 1% | 0% | -19% | 2% | 4% | 13% | 0% |
| CSc1nc(Nc2ccc(C)cc2)c(C#N)c(-c2ccccc2)n1 | 20% | -3% | 3% | -8% | -14% | 9% | 33% | 2% |
| COc1ccc(C(=O)CSc2ccc3nnc(-c4cccnc4)n3n2)cc1 | 5% | 0% | -15% | -3% | -3% | -3% | 3% | -11% |
| Cc1cccc(N(C(=O)c2csnn2)C(C(=O)NC2CCCC2)c2ccncc2)c1 (centres undefined) | 24% | -5% | 7% | -7% | -27% | 1%[57.1 µM] | -6%[57.1 µM] | 3% |
| CCc1ccccc1NC(=O)COc1ccc2oc(-c3ccc(OC)cc3)cc(=O)c2c1 | -8% | 1% | 4% | -13% | -14% | 55%[activator][57.1 µM] | -7%[57.1 µM] | -1% |
| O=C(O)c1ccccc1SCc1cn2cc(Br)ccc2n1 | -3% | -7% | 11% | -19% | -4% | 16% | 38%[activator] | -11% |
| CSc1ccc(S(=O)(=O)Nc2ccc3c(c2)OCCO3)cc1 | -18% | -4% | 9% | -15% | 6% | -11%[57.1 µM] | 1%[57.1 µM] | -3% |
| Cc1ccc(-c2nn3c(C)nnc3s2)cc1NCc1c(F)cccc1Cl | -3% | -7% | -1% | -12% | 6% | 10% | 6% | ? |
| COc1ccc(Cl)cc1NC(=O)c1sc2nc(-c3ccc(OC)c(OC)c3)ccc2c1N | -9% | -10% | 3% | -4% | ? | -4% | -11% | 4% |
| Cc1c(C(=O)Nc2c(F)cccc2F)sc2ncn(CC(=O)N3CCCCC3)c(=O)c12 | 18% | 1% | -9% | -11% | 5% | -5% | -3% | 3% |

From PubChem BioAssay
